Source: PubChem BioAssay (National Center for Advancing Translational Sciences (NCATS))
Sfp PPTase inh = inhibitors of Bacillus subtilis Sfp phosphopantetheinyl transferase; Q9F4F7; Biochemical Sfp PPTase activity, qHTS; Potency, µM, without a hit: max response, negative = inhibition, actives largely listed as inhibitors; hit rate 3.5% among 310,000; active = well fitted inhibition curve with a large enough effect; inconclusive = small, poorly fitted or top-dose-only effect, or another doubt; inactive = no such curve, though single readings can be large or run the other way;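 note: the enzyme is Sfp with the accession as filed and its product quenches rhodamine fluorescence; potency is the fitted concentration of half-maximal effect; 0% = enzyme reaction without inhibitor and -100% = no enzyme wells; top concentration of the series not given in the record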
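Step 1, compound plus 15 nM Sfp-PPTase, 15 min, room temperature. Step 2, add rhodamine-CoA (5 uM) and BHQ-2-YbbR (12.5 uM). Step 3, read 525/598 nm fluorescence at 0 and 30 min.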
TRPV1 potentiator = potentiators of human vanilloid receptor 1 (TRPV1) | TRPV1-expressing cells, Fluo-8 calcium influx, capsaicin EC20 potentiation; host cell line not named in the record; control for the full effect not named in the record | potentiation, % at 8.33 µM | hit rate 0.02% among 320,000 | AID 540277; active means potentiation above 80%; inconclusive means 30% to 80%; inactive means below 30%; note: 0% is about no effect
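Fluo-8 calcium influx in TRPV1-expressing cells, kinetic read (ex 480/em 520 nm). Compound added and read 3 min for agonist activity, followed by capsaicin at EC20 final and 2 min further read for enhancement.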
D2 agonist = agonists of human D2 dopamine receptor (beta-arrestin) | DiscoveRx PathHunter D2 beta-arrestin, luminescence, 90 min; 100% = 57 uM dopamine signal | hit rate 0.084% among 360,000 | P14416 | activation, % (test concentration not listed) | AID 624465; in the data active = activation above about 40%; inconclusive = about 15% to 40%; inactive = below about 15%; note: compound concentration not given in the record; the text of the record calls up to 30% inactive
Target sequence (P14416 whole entry, looked up): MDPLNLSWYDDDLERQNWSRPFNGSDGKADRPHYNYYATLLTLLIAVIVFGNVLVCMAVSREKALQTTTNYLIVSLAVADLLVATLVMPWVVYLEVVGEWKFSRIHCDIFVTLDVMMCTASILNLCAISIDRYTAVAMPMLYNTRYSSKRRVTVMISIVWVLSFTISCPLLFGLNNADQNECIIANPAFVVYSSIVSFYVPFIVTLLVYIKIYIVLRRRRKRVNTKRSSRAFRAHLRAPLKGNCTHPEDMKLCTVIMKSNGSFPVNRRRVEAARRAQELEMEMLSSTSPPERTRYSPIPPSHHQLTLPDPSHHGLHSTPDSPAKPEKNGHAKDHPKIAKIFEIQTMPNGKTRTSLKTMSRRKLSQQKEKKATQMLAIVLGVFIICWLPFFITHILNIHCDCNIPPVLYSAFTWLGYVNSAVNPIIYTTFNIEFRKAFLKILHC
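DiscoveRx PathHunter D2 beta-arrestin cells (2,100/well) attached overnight, then compound-stimulated 90 min at 37 C in HBSS/10 mM HEPES/0.1% Tween-20 buffer; beta-galactosidase complementation read by luminescence after 1 h at ambient temperature. Dopamine 57 uM final (EC100) as control.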
CtBP-E1A inh = blocks the CtBP interaction with E1A | AlphaScreen GST-E1A/His-CtBP binding, 1536-well; stronger effect = lower value; control for the full effect not named in the record | activity change, % (test concentration not listed) | hit rate 0.49% among 340,000 | AID 651724; in the data active means activity change below about -65%; inconclusive means about -30% to -65%; inactive means above about -30%; note: % is set by controls: 0 for no effect and ±100 for the full control effect; compound concentration not given in the record
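Protein mix (5X: 125 nM each GST-E1A, His-CtBP) was incubated with pinned compound 2 h at 37 deg C in dark, in 50 mM Tris pH 8.0 buffer with 300 mM NaCl. Glutathione donor and nickel acceptor beads followed; AlphaScreen signal read after 1 h.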
PINK1 modulator = changes PINK1 expression | AID 624263 | hit rate 0.2% among 410,000 | PINK1 immunofluorescence, high-content cytometry, 24 h | Potency, µM (top dose mostly 76.6 µM), for inactives: top-dose activation (PINK1 increase), most hits filed as activators; active = well fitted activation curve with a large enough effect; inconclusive = small, poorly fitted or top-dose-only effect; inactive = flat fitted curve, though single readings scatter; cell line not stated here;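 note: potency is the fitted concentration of half-maximal effect; % of control where 0% means no effect; nearly all actives have a fitted effect of over 65% in size; a mitochondrial uncoupler was the plate control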
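Fluorescence from anti-PINK1 antibody, together with nuclear and cell stains, was scanned on a laser-scanning cytometer. Before staining, stable-line cells were incubated 24 hours with compounds at 5 concentrations; primary antibody 12 h at 10 degrees C.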
D2 potentiator = potentiates the human D2 dopamine receptor allosterically | P14416 | DiscoveRx D2 beta-arrestin cells, luminescence, 90 min; 100% = 57 uM dopamine signal | potentiation, % (no concentration beside the values) | hit rate 0.23% among 360,000 | AID 624464; active = potentiation of 50% or more; inconclusive = 30% to 50%; inactive = 30% or less;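 note: compound concentration not given in the record; tested on top of an EC20 dose of dopamine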
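PathHunter D2 cells, attached overnight at 37 deg C, received compound in DMSO plus dopamine at EC20 (50 nM final) for 90 min at 37 deg C. Beta-arrestin recruitment was read as luminescence after 1 h with detection reagent at ambient temperature.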
Six1-Eya2 blk = Six1/Eya2 interaction inhibition. activity change, % (test concentration not listed). Q15475+O00167. hit rate 0.56% among 360,000. AlphaScreen GST-Six1/His-Eya2 binding, biochemical; stronger effect = lower value; control for the full effect not named in the record; in the data active = activity change below about -65%; inconclusive = about -30% to -65%; inactive = above about -30%; note: % is set by controls: 0 for no effect and ±100 for the full control effect; compound concentration not given in the record
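Homogeneous AlphaScreen proximity assay pairing GST-Six1 with His-tagged Eya2 (added as 5X mix: 250 nM and 500 nM) in 50 mM Tris pH 8.0, 300 mM NaCl, 1 mM TCEP. Glutathione donor and nickel acceptor beads; 1 h, 37 °C, dark.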
* marks the source's active call; other numbers are inactive results; ? = inconclusive; · = not tested or not shown; [ ] = another dose, or the depositor's remark.

Molecule	Sfp PPTase inh	Six1-Eya2 blk	D2 potentiator	TRPV1 potentiator	CtBP-E1A inh	PINK1 modulator	D2 agonist
CCOC(=O)c1sc2ncn(C(CC)C(=O)OCC)c(=O)c2c1C (stereo not given)	5%	12	-4	-18	12	-1.8%	-0.2
COCCNC(=O)C1CCCN(C(=O)/C=C/c2ccccc2)CC1 (stereo not given)	·	5	0	·	6	-0.3%	0.5
Fc1ccc(NC(=S)Nc2ccccc2N2CCOCC2)cc1Cl	21%	10	0	-8	5	1.5%	2.4
COc1ccc(CCNCC(=O)Nc2ccc(C)c(S(=O)(=O)N(C)C)c2)cc1	-13%	-2	-17	10	-3	-0.6%	-0.8
C[C@@H]1CCCCO[C@H](CN(C)Cc2ccc(C(=O)O)cc2)[C@@H](C)CN([C@H](C)CO)C(=O)c2cc(N(C)C)ccc2O1	·	-15	-1	·	4	0.9%	-4.7
N[C@@H](Cc1cc(I)c(Oc2cc(I)c(O)c(I)c2)c(I)c1)C(=O)O	6%	-23	-4	·	-13	0.3%	-9.6
COc1ccc(CNC(=O)C(=O)NCC2OCCCN2S(=O)(=O)c2cccs2)cc1 (stereo not given)	11%	1	17	1	-13	0.3%	0.7
Cc1nn(C)c(C)c1NS(=O)(=O)c1ccc(Cl)s1	·	3	-3	·	·	1.4%	4.2
Cc1cc(NC(=O)CSc2nc3ccsc3c(=O)n2Cc2ccccn2)n[nH]1	13%	-7	-16	0	-19	-7.4%[38.3 µM]	0.6
CCN1C(=O)c2cccc3c(S(=O)(=O)Nc4ccc(OC)cc4OC)ccc1c23	10%	9	-1	3	-7	6.6%	-3.6
N#Cc1ccsc1NC(=O)CN1CCCCC1	89µM*	4	3	0	-1	2.0%	0.0
CCN(CC)CCN(Cc1cc2ccc(C)c(C)c2[nH]c1=O)C(=S)NCc1ccco1	56µM*	-6	-10	-11	3	-0.2%	-6.0
Cc1nc([N+](=O)[O-])cn1-c1nc2ccccn2c1[N+](=O)[O-]	15%	-10	24	?	·	3.0%	-2.2
Cc1noc(C)c1CCC(=O)Nc1cc(C(=O)O)ccc1Cl	·	23	-11	·	-2	0.3%	0.7
COc1ccc(CNC(=O)CCC(=O)Nc2nnc(C(F)(F)F)s2)cc1	11%	-2	-9	7	-13	-1.0%	-5.3
COc1cc(-c2noc(C)c2C#Cc2ccsc2)cc(OC)c1OC	?	14	-7	-11	·	1.8%	-3.0
Cc1cccc(C)c1Cn1c(C)c(C(=O)NCc2ccc([N+](=O)[O-])cc2)sc1=O	·	-2	-2	·	?	0.0%	0.6
O=C(NCCCN1CCCC1=O)Nc1ccccc1Cl	2%	0	-12	7	-3	-0.5%	-0.7
CCOC(=O)Cc1csc(NS(=O)(=O)c2ccc(NC(C)=O)cc2)n1	9%	-4	-4	5	·	0.3%	0.7
COc1ccc(NC(=O)Cn2c(=O)n(-c3ccccc3)c(=O)c3oc4ccccc4c32)c(OC)c1	?	-2	2	-2	8	-2.1%	-1.6
O=C(COC(=O)c1cccc(Br)c1)NCCNC(=O)COC(=O)c1cccc(Br)c1	-3%	4	7	-2	4	-0.1%	2.5
Cc1nc2cc(C(=O)N3CCN(C)CC3)ccc2n1C	-3%	3	-4	-3	8	2.8%	2.9
C/C(=N\Nc1ccc(C(=O)c2c(C)cc3ccccn23)cc1[N+](=O)[O-])c1ccc(O)cc1	20µM*	0	-5	7	-10	5.1%	0.4
COc1cccc(-c2cc(C(=O)N3CCc4ccccc4C3)[nH]n2)c1	11%	11	-1	-17	6	11%	-4.3
O=C(C1CCCO1)N1CCN(C(=S)Nc2cc(F)cc(F)c2)CC1 (stereo not given)	3%	4	-6	-2	0	-1.2%	-7.5
CCOC(=O)C1=C[C@@H](CC)N(S(=O)(=O)c2ccc(C)cc2)[C@H]1c1ccccc1	·	26	-3	·	12	1.0%	-5.6
Cc1cc(NC(=O)CSc2nnc(CNc3cccc(C(F)(F)F)c3)n2Cc2ccco2)no1	-8%	1	2	-2	2	1.6%[38.3 µM]	-0.4
CC1CC2CCCC(O)=C2C(=O)O1 (stereo not given)	·	4	-6	·	-17	-0.1%	5.4
COc1cccc(C(=O)Oc2cc(N)n(S(=O)(=O)c3ccc(C)cc3)n2)c1OC	0%	-3	-4	·	3	6.0%	-1.0
COc1ccc(CC(=O)Nc2ccccc2N2CCCC2)cc1	-3%	-6	-15	0	-7	0.5%	-0.9

Ordered by length of the SMILES (rising): 12 of the compounds above
Molecule	Sfp PPTase inh	Six1-Eya2 blk	D2 potentiator	TRPV1 potentiator	CtBP-E1A inh	PINK1 modulator	D2 agonist
O=C(NCCCN1CCCC1=O)Nc1ccccc1Cl	2%	0	-12	7	-3	-0.5%	-0.7
Cc1nc2cc(C(=O)N3CCN(C)CC3)ccc2n1C	-3%	3	-4	-3	8	2.8%	2.9
COc1ccc(CC(=O)Nc2ccccc2N2CCCC2)cc1	-3%	-6	-15	0	-7	0.5%	-0.9
Cc1nn(C)c(C)c1NS(=O)(=O)c1ccc(Cl)s1	·	3	-3	·	·	1.4%	4.2
Fc1ccc(NC(=S)Nc2ccccc2N2CCOCC2)cc1Cl	21%	10	0	-8	5	1.5%	2.4
COc1cc(-c2noc(C)c2C#Cc2ccsc2)cc(OC)c1OC	?	14	-7	-11	·	1.8%	-3.0
COc1ccc(CNC(=O)CCC(=O)Nc2nnc(C(F)(F)F)s2)cc1	11%	-2	-9	7	-13	-1.0%	-5.3
Cc1nc([N+](=O)[O-])cn1-c1nc2ccccn2c1[N+](=O)[O-]	15%	-10	24	?	·	3.0%	-2.2
CCN1C(=O)c2cccc3c(S(=O)(=O)Nc4ccc(OC)cc4OC)ccc1c23	10%	9	-1	3	-7	6.6%	-3.6
CCN(CC)CCN(Cc1cc2ccc(C)c(C)c2[nH]c1=O)C(=S)NCc1ccco1	56µM*	-6	-10	-11	3	-0.2%	-6.0
Cc1cc(NC(=O)CSc2nnc(CNc3cccc(C(F)(F)F)c3)n2Cc2ccco2)no1	-8%	1	2	-2	2	1.6%[38.3 µM]	-0.4
Cc1cccc(C)c1Cn1c(C)c(C(=O)NCc2ccc([N+](=O)[O-])cc2)sc1=O	·	-2	-2	·	?	0.0%	0.6

Whole records, looked up by structure. Order of screens: Sfp PPTase inh, Six1-Eya2 blk, D2 potentiator, TRPV1 potentiator, CtBP-E1A inh, PINK1 modulator, D2 agonist
Results for `Cc1cc(NC(=O)CSc2nnc(CNc3cccc(C(F)(F)F)c3)n2Cc2ccco2)no1` : -8%, 1, 2, -2, 2, 1.6%[38.3 µM], -0.4
Results for `COc1ccc(CNC(=O)C(=O)NCC2OCCCN2S(=O)(=O)c2cccs2)cc1` (stereo not given) : 11%, 1, 17, 1, -13, 0.3%, 0.7
